# RGS16-Gao – RGS16-Galphao interaction regulator (human); binding response (% of control), % at 10 µM; bead-based flow cytometry RGS16-Galphao binding, fluorescence; actives lie on both sides; hit rate 0.38% among 220,000; AID 1441; O15492+P09471;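 active = below 25% or above 175%, edge rows of some plates excepted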;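 also: Galphao activated by GDP with aluminum fluoride before binding; 100% = wells without compound and 0% = beads without RGS; some results beyond the cut were filed as inactive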
# INS promoter inh – TRM-6 insulin promoter activity inhibition | AID 1273 | TRM-6 cells (human fetal islet line), insulin promoter-eGFP reporter, imaging; reporter expression induced with tamoxifen | inhibition, % at 2 µM | hit rate 0.9% among 130,000;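 active = inhibition above the mean plus 3 SD, with well images judged a real hit on visual review, cut at about 60% in these data, passing the limit was not always enough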
# PKD1 inh – blocks activity of human protein kinase D1; PKD1 kinase fluorescence polarization assay; inhibition, %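 (about 10 µM by stock and volumes)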; hit rate 0.056% among 200,000;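 active = inhibition of 50% or more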;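 also: controls were vehicle for no effect and a reference inhibitor for full effect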
# Target sequence (Q15139 whole entry, looked up): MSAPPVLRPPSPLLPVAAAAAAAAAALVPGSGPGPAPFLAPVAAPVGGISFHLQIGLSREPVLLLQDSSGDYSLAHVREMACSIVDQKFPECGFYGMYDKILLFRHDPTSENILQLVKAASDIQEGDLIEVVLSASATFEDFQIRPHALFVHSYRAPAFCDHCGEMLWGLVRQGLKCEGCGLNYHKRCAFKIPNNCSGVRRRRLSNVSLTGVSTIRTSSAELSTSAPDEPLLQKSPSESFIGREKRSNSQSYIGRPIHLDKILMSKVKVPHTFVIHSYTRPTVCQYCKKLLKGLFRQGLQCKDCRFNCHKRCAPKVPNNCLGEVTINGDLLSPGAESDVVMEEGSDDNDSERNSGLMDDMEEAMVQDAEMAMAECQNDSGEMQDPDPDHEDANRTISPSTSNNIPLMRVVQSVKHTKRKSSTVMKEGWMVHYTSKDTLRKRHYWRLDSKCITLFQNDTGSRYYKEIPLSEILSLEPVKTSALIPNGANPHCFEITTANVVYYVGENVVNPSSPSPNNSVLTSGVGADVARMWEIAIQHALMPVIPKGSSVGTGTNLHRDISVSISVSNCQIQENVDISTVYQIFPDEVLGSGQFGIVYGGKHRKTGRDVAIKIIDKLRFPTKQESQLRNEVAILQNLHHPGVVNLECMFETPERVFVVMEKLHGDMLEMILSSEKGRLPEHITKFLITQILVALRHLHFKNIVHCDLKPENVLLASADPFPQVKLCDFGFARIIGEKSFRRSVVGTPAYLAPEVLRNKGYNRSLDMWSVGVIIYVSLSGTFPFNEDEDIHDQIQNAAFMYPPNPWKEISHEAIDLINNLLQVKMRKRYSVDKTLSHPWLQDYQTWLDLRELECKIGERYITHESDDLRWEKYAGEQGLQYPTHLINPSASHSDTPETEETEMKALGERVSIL
# GALR2 agonist – agonists of human galanin receptor 2 (GALR2) | activation, %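 (tested at 5 µM)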 | hit rate 0.48% among 140,000 | GALR2-expressing cells, agonist activation read-out | AID 803 | O43603;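 active = above mean plus 3 SD of all compounds, about 5% in these data, not always enough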;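 also: 0% = vehicle buffer wells and 100% = reference agonist at full effect; tested in CHO reporter cells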
# HSV augment – HSV replication enhancement; HSV replication augmentation in cells, fold increase; maximum fold increase; hit rate 0.005% among 220,000; AID 1956;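 active = peak rise of 1.5-fold or more in the series; tested in PC3 cells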;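 also: first round at 10 µM; read as green reporter fluorescence; hits show the peak of a series up to 25 µM; 1 = signal of infected wells without compound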
# INS promoter inh cell count – further read-out of INS promoter inh, marked with its call; normalized cell count, %; measured here: cell count, toxicity; reference of the scale not given here;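 cells exposed to compound for 48 h; stained nuclei by imaging scaled within each plate; lower means fewer cells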
# HSV augment primary fold – recorded beside HSV augment, whose call it bears; fold increase; compound at 10 µM; measured here: primary screen fold increase 10 uM; tested in PC3 cells;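 GFP signal in the first replicate; 1 = infected wells without compound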
# * = called active by the depositor; i = inactive; x = not tested or not shown. This is a random part of the collection; about 1.3% have a hit in one of these screens.
# The opening two entries, to show the layout:
SMILES,RGS16-Gao,INS promoter inh,INS promoter inh cell count,PKD1 inh,GALR2 agonist,HSV augment,HSV augment primary fold
CCOc1ccc(-c2nc(C#N)c(N3CCOCC3)o2)cc1,103,x,x,-5,-1.2,i,0.66
CCN(CC)CCNC(=O)c1ccccn1,106,12,59,2,-2.3,i,1.1

# The whole of this part, previewed entries included:
SMILES,RGS16-Gao,INS promoter inh,INS promoter inh cell count,PKD1 inh,GALR2 agonist,HSV augment,HSV augment primary fold
CCOc1ccc(-c2nc(C#N)c(N3CCOCC3)o2)cc1,103,x,x,-5,-1.2,i,0.66
CCN(CC)CCNC(=O)c1ccccn1,106,12,59,2,-2.3,i,1.1
COCC(=O)Nc1cc(C(=O)Nc2cccc(C)c2C)ccc1Cl,106,-23,100,-6,0.5,i,0.9
CC1(C)Cc2ccccc2C(NNC(=O)c2ccncc2)=N1,113,27,105,-8,-2.2,i,1.2
COc1ccc(C(=O)Nc2cc(OC)c(NC(=O)c3ccco3)cc2OC)cc1,94,14,121,-14,-2.8,i,0.91
CCCCn1c(NCc2ccccc2NS(=O)(=O)c2ccc(C)cc2)nc2ccccc21,109,15,115,4,-2.7,i,0.88
CCNC(=S)N(Cc1ccc2c(c1)OCO2)C1CC(=O)N(c2ccc(F)cc2)C1=O (centres undefined),97,8,109,6,11,i,0.72
O=C1c2ccccc2C(=O)N1CN(C(=O)COc1ccc(Cl)cc1Cl)c1cccc(F)c1,105,x,x,0,-1.0,i,1.2
COc1cc(NC(=O)c2ccc3c(c2)OCO3)ccc1NC(=O)C(C)C,103,x,x,-1,-1.1,i,0.83
O=C(NC1CC2CCCC(C1)N2Cc1ccco1)NC12CC3CC(CC(C3)C1)C2 (centres undefined),102,x,x,-11,-1.9,i,0.82
O=C(CN1CCN(c2ncccn2)CC1)N1CCCC1,107,x,x,-2,x,i,0.9
CN(CC(=O)NCc1cccs1)S(=O)(=O)c1cccc2nsnc12,97,-29,109,-3,-0.3,i,0.98
Cc1ccc(C(=O)Cn2nnc3ccccc32)cc1,103,0,77,-12,-2.4,i,1.1
CCSc1ncnc2c(C#N)c3n(c12)CCCCC3,72,x,x,5,0.5,i,0.86
COc1ccc(CNC(=O)Cn2nc(C(F)(F)F)c3c2CCC3)cc1,102,42,120,4,0.3,i,0.86
CN(C)CC(C)(C)CNS(=O)(=O)c1ccc(Cl)s1,98,x,x,2,x,i,0.98
COc1ccccc1N1CCN(CC(O)COc2ccc3c(c2)CCC3)CC1 (centres undefined),103,-24,140,-12,-0.2,i,0.92
CC(C)C(=O)NNc1ccccc1,114,23,111,1,-2.0,i,0.97
COc1cc(NS(=O)(=O)c2ccc(NC(=O)COc3ccc(C)cc3)cc2)nc(OC)n1,108,x,x,-8,-0.6,i,1
COC(=O)C1=C(C)NC(=O)CC1c1cccc(OC)c1OC (centres undefined),98,x,x,5,-1.8,i,0.86
Cc1nc(-c2ccc(-n3nncc3-c3ccco3)cc2)cs1,122,x,x,x,x,i,1
CCOc1ccc(OCCCC(=O)NC2=NCCS2)cc1,108,-21,121,-3,-1.3,i,0.7
O=c1c2ccccc2oc2nc3n(c(=O)c12)CCCS3,104,27,81,-2,-0.6,i,0.88
CCOC(=O)C(Oc1ccc(=O)n(-c2ccccc2)n1)C(C)=O (centres undefined),106,38,115,-1,-1.5,i,1.1
O=[N+]([O-])c1ccc(O)c(Nc2ncnc3ccccc23)c1,102,11,196,0,x,i,0.97
Nc1c(C(=O)NCc2ccccc2)nnn1Cc1cccc(Cl)c1,71,x,x,0,-2.3,i,0.65
Cc1cccc(Cl)c1NC(=S)NN,98,x,x,x,x,i,0.95
CC1CCN(c2nc(N3CCCCC3)nc(N3CCCCC3)n2)CC1,93,x,x,0,x,i,1.2
CSc1ccccc1NC(=O)CN(c1ccccc1)S(=O)(=O)N(C)C,101,-38,126,-5,-1.3,i,0.92
O=C(COc1ccccc1Cl)Nc1cccnc1,103,x,x,-7,x,i,1
COc1ccc(NC(=O)/C(=C\c2cc(OC)c(OC)cc2[N+](=O)[O-])NC(=O)c2ccccc2)cc1,104,-17,120,-1,-1.4,i,0.93
CCOC(=O)c1cnc(-n2nc(C)cc2C)nc1NNc1cc(C)nc(-c2ccccc2)n1,104,25,66,2,1.3,i,0.7
COc1ccccc1/C=C/C(=O)OCC(=O)Nc1ccc(Cl)cn1,100,x,x,x,x,i,0.88
O=C(COC(=O)CC1c2ccccc2CCN1S(=O)(=O)c1ccccc1)Nc1ccccc1 (centres undefined),87,-11,82,10,-0.8,i,1
O=C(Nc1ccccc1)N1CCN(c2ccc(C(F)(F)F)cn2)CC1,102,-18,106,-1,-1.2,i,0.87
Cn1cc(Br)c(C(=O)NNC(=O)c2cccc(Br)c2)n1,92,32,95,-3,-1.8,x,x
NS(=O)(=O)c1cccc(NC(=O)c2cc(-c3cccs3)nc3ccccc23)c1,98,x,x,x,x,i,0.91
Cc1[nH]c2ccccc2c1NC(=O)CN1CCN(c2cccc(C(F)(F)F)c2)CC1,111,6,63,-12,-0.6,i,0.93
Cc1ccc(-n2nnnc2SCC(=O)N2CCN(C(=O)c3ccco3)CC2)c(C)c1,101,-11,83,-3,-0.7,i,0.97
S=C(NC1CC1)N1CCN(c2ccc(Cl)cc2)CC1,96,x,x,-1,x,i,1.2
CC(C)OCCCNC(=O)C1CCC(=O)N1C(C)C (centres undefined),101,x,x,-2,-0.9,i,1
CCCCOC(=O)c1ccc(NC(=O)C(=O)NCCN(CC)CC)cc1,103,x,x,x,x,i,0.97
CCCCCC(=O)N/N=C(\C)c1ccc(NC(=O)c2ccco2)cc1,113,x,x,11,-2.0,x,x
CCc1ccccc1NC(=O)C1CCCN(S(=O)(=O)c2c(C)noc2C)C1 (centres undefined),102,x,x,-9,-1.5,i,0.9
COC(=O)c1cccc(N2C(=O)c3ccccc3S2(=O)=O)c1,113,24,87,-5,-1.6,i,0.9
CS(=O)(=O)N1CCC(C(=O)N2CCN(c3ccccc3F)CC2)CC1,114,6,85,-3,x,i,0.99
O=C(O)c1ccccc1NS(=O)(=O)c1ccc2c3c(cccc13)C(=O)N2,108,x,x,-5,-1.5,i,0.84
O=C(c1ccco1)N1CCN(C(=O)c2sccc2-c2ccccc2)CC1,99,7,97,3,-1.0,i,1.2
CCOC(=O)C(C)Sc1nc(=O)n2ccccc2n1 (centres undefined),105,-12,108,-1,x,i,0.9
CNS(=O)(=O)c1cccc(C(=O)OCc2cc(=O)n3cc(Br)ccc3n2)c1,102,-10,119,-4,-0.2,i,0.9
CCOc1ccccc1N1CCN(C(=O)C2c3ccccc3Oc3ccccc32)CC1,101,-18,67,-6,-1.1,i,0.69
O=C(O)c1cc2nc(C3CC3)cc(C(F)(F)F)n2n1,98,x,x,0,-2.6,i,1.1
C1CCC(n2nnnc2CN2CCN(C3CCCC3)CC2)CC1,103,x,x,-8,-2.2,i,0.79
COc1ccccc1NC(=O)c1cc2ccccc2nc1C,99,x,x,5,x,i,0.96
Cn1c(Oc2ccccc2NCc2cccc(Br)c2)cc(=O)n(C)c1=O,105,29,84,1,0.9,i,0.89
COc1cc(C(=O)N/N=C/c2ccccn2)cc(OC)c1OC,12*,x,x,-3,x,i,0.79
CCn1c(=O)n(CC)c2cc(S(N)(=O)=O)ccc21,106,x,x,-1,-2.6,i,1
O=C(N/N=C\c1ccc(Br)cc1)c1ccc(Cn2cccn2)o1,105,-30,83,-17,-0.8,i,0.85
O=C(CCN1C(=O)C2CCCCC2C1=O)Nc1nc(-c2ccccc2)cs1 (centres undefined),90,x,x,x,x,i,1
Cc1ccc(S(=O)(=O)C(c2ccccc2)c2c(C)noc2C)cc1 (centres undefined),110,31,94,-1,-1.4,i,1.1

# Some of the entries so far, with bars between the fields.
mol | RGS16-Gao | INS promoter inh | INS promoter inh cell count | PKD1 inh | GALR2 agonist | HSV augment | HSV augment primary fold
CCOc1ccccc1N1CCN(C(=O)C2c3ccccc3Oc3ccccc32)CC1 | 101 | -18 | 67 | -6 | -1.1 | i | 0.69
O=C(O)c1cc2nc(C3CC3)cc(C(F)(F)F)n2n1 | 98 | x | x | 0 | -2.6 | i | 1.1
C1CCC(n2nnnc2CN2CCN(C3CCCC3)CC2)CC1 | 103 | x | x | -8 | -2.2 | i | 0.79
COc1ccccc1NC(=O)c1cc2ccccc2nc1C | 99 | x | x | 5 | x | i | 0.96

# Carrying on:
SMILES,RGS16-Gao,INS promoter inh,INS promoter inh cell count,PKD1 inh,GALR2 agonist,HSV augment,HSV augment primary fold
COc1cccc(C(=O)Nc2ccc3c(c2)C(=O)c2ccccc2C3=O)c1,159,x,x,18,4.6,i,0.66
CCCCNC(=O)N1CCN(c2ccccc2OCC)CC1,100,x,x,-6,x,i,0.98
Cc1ccc[n+](-c2[nH]c(=O)sc2/C=N/NC(=O)c2ccccc2[O-])c1,109,x,x,6,-0.2,i,1.1
COc1cc2nc(SCC(=O)NCc3ccco3)n(Cc3ccc(Cl)cc3)c(=O)c2cc1OC,97,-66,167,-9,-1.8,i,0.51
CCOC(=O)C1=C(C)N=C2SCCC(=O)N2[C@@H]1/C=C/c1ccccc1,103,-16,100,6,0.8,i,1.1
Cc1cccc(C)c1NC(=S)N/N=C/c1ccc(OCCC(C)C)cc1,102,x,x,-6,-2.6,i,0.73
O=C(CSc1nnc(-c2cc3ccccc3cc2O)n1Cc1ccco1)c1ccc(F)cc1,100,6,99,1,-1.3,i,0.85
COCCN=c1scc(-c2ccc3c(c2)NC(=O)CO3)n1/N=C(\C)c1ccc(O)cc1,92,x,x,x,x,i,1.3
CCOC(=O)CCSc1nc(C(C)(C)C)cc(C(F)(F)F)c1C#N,88,33,148,-10,-1.6,i,0.85
CC(C)(C)C(=O)[C@@H]1[C@@H]2C(=O)N(Cc3ccccc3)C(=O)[C@@H]2[C@H]2c3ccccc3C=CN12,101,-41,133,-4,-2.1,i,0.77
CC1CCN(C(=O)COC(=O)c2n[nH]c3ccccc23)CC1,99,x,x,2,-0.7,i,0.91
CCc1ccc(N2C(=O)CC(N3CCC(C(=O)OC)CC3)C2=O)cc1 (centres undefined),76,i,66,-7,-1.9,i,1
O=C(CN=C1NC(=O)C(c2ccccc2)(c2ccccc2)N1)NCc1ccc(F)cc1,118,19,56,1,-0.7,i,0.92
COc1ccc(Cc2nnc(NC(=O)CSc3ccccc3)s2)cc1,97,4,101,9,-1.9,i,0.8
O=C(/C=C/c1c(Cl)nc2ccccn12)N1CCN(c2ccccc2F)CC1,98,x,x,-6,x,i,0.83
CCOC(=O)N1CCN(C(=O)c2cc3sccc3n2C)CC1,100,-23,90,-13,-0.8,i,1.1
COC(=O)C(CC(C)C)NC(=O)c1cc(OC)c(OC)c(OC)c1 (centres undefined),106,x,x,-15,-2.1,i,0.92
Cc1ccc2c(C(=O)CN3CCN(C4CCCCC4)CC3)c(C)[nH]c2c1,114,6,98,-4,-0.6,i,0.86
CC(=O)N(C)c1ccc(NC(=S)Nc2cccc3ccccc23)cc1,95,x,x,-7,-0.7,i,1
Cc1ccc(S(=O)(=O)/N=C(\CSC(N)=O)Nc2ccccc2)cc1,111,x,x,1,0.7,i,0.86
COc1ccc(-n2cc(CNC3CCN(C)CC3)c(-c3cccc(F)c3)n2)cc1,99,x,x,4,x,i,0.82
Cc1ccc(C)c(NC(=S)N2CCN(c3cccc(C(F)(F)F)c3)CC2)c1,101,x,x,-1,-3.9,i,0.74
COC(=O)COc1ccc(S(=O)(=O)Nc2ccc3c(c2)OCCO3)cc1Cl,88,-10,80,-5,-2.7,i,0.7
Cc1sc2ncn(CC(=O)N(CC(=O)NC3CCCC3)Cc3cccs3)c(=O)c2c1C,119,-48,108,-2,0.2,i,1.1
O=C(Nc1ccn([C@H]2CC[C@@H](CO)O2)c(=O)n1)c1ccccc1,99,x,x,x,x,i,0.89
Fc1ccccc1OCCSc1ncnc2nc[nH]c12,103,x,x,0,x,i,0.61
CC(=O)/C(N=Nc1ccc2c(c1)OCO2)=C(\C)O,69,-8,78,-15,-1.3,i,1
Cc1c(Cl)cc(-n2cnnn2)cc1[N+](=O)[O-],79,-25,53,2,x,i,0.89
CN(CCC#N)c1ncnc2scc(-c3ccccc3)c12,97,x,x,-19,-3.4,i,0.91
CCOC(=O)CCCN1CC(O)=C(c2nc3ccccc3s2)C1=N,106,x,x,-7,x,i,1
CC(=O)N/C(=C/c1ccc2c(c1)OCO2)C(=O)NCCO,110,-7,133,8,-0.5,i,0.9
O=C(CCCN1C(=O)c2cccc3cccc(c23)C1=O)N1CCc2ccccc2C1,104,6,85,-4,-1.4,i,1
C#CCSc1n[nH]c(=O)n1-c1cccc(C(F)(F)F)c1,105,x,x,x,x,i,1.1
CC1(C)NC(=O)N(CC(O)COC2CCCCC2)C1=O (centres undefined),104,36,104,-13,-1.9,x,x
Cc1cccc2nc(CNc3ccc(F)cc3)cn12,87,60,127,-10,-2.0,i,0.89
